Calb biofilm kill – mixtures killing C. albicans biofilm | C. albicans biofilm persisters + clotrimazole, fluorescence viability; primary screen in compound mixtures of four per well | inhibition, % at 7.6 µM | 0.02% of 120,000 active;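 active = inhibition above 30.3% in the primary screen of four-compound pools, then above 30% when the compound was retested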;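 note: compounds exposed to preformed 24 h biofilms for 48 h; the number belongs to the whole pool; some results filed as inactive read as strong as hits; inactives centre near 12; 0% = biofilm with clotrimazole alone and 100% = kill control; retested singly at about 60 µM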
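Test system: C. albicans CAF4-2 wild-type biofilms; buffer or medium: RPMI/MOPS medium, pH 7.0; schedule: 24 h biofilm formation, then 48 h compound exposure, 37 °C; detection: Alamar Blue fluorescence; measure: percent inhibition of biofilm viability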
* = called active by the depositor. A portion of the library; rates above refer to the full screens.

SMILES,Calb biofilm kill
CC(=O)NS(=O)(=O)c1ccc(NC(=O)c2cc3c(=O)n4ccccc4nc3s2)cc1,6.2
O=C(Nc1ccc(Cl)cc1)N1CCCC(Cn2cccc2)C1 (stereo not given),9.1
Clc1ccc(-c2csc(Nc3ccccc3)[n+]2Cc2ccco2)c(Cl)c1,8.2
O=C(COc1ccc(N2C(=O)c3ccccc3C2=O)cc1)c1ccccc1,15.8
Cc1cccc(-n2c(C)cc(/C=C3/C(=N)N4C(c5ccccc5)=CSC4=NC3=O)c2C)c1,9.5
O=C(NN1CCOCC1)c1ccc(Cl)cc1,13.2
O=C(CCC(=O)Nc1ccc(F)cc1)N/N=C/c1c[nH]c2ccccc12,12.7
COc1ccc(C(Nc2cc(C)ccn2)c2ccc3ccc(C)nc3c2O)cc1 (stereo not given),19.3
Cc1cccc(NC(=O)Cc2noc3ccccc23)c1,12.0
COc1ccc2cnnc(SCC(=O)Nc3ccc(C(=O)O)cc3)c2c1OC,21.4
C#CCOCCOCCOCCNc1nc(N2CCN(C(=O)Cn3cc(CC(C)O)nn3)CC2)nc(N2CCN(C(=O)[C@H](C)n3cc(CCCN=C(N)N)nn3)CC2)n1 (stereo not given in full),16.2
CC(=Nc1ccc(Br)cc1)c1sc2ccccc2c1O,24.6
O=C1N=c2ccccc2=C1c1sc(Nc2ccc(O)cc2)nc1O,1.9
Cc1ccc(COc2ccc(C(=O)NN)cc2)cc1,10.7
O=C(NCC(c1cccnc1)N1CCN(c2ccccc2)CC1)OCc1ccccc1 (stereo not given),7.9
O=C(CSCc1ccc(Cl)cc1)Nc1ccc(-c2nnc(-c3ccccc3)o2)cc1,15.4

Another view of part of the listing above.
Cc1ccc(COc2ccc(C(=O)NN)cc2)cc1
  Calb biofilm kill: 10.7
O=C(NCC(c1cccnc1)N1CCN(c2ccccc2)CC1)OCc1ccccc1 (stereo not given)
  Calb biofilm kill: 7.9
O=C(CSCc1ccc(Cl)cc1)Nc1ccc(-c2nnc(-c3ccccc3)o2)cc1
  Calb biofilm kill: 15.4

Further records.
SMILES,Calb biofilm kill
COC(=O)c1c(-c2ccccc2)csc1NC(=O)c1c(-c2ccccc2)noc1C,22.4
COc1c(Br)cc(Br)cc1/C=N/NC(=O)c1ccncc1,25.3
COc1ccc(-c2nc(SCC(=O)Nc3nccs3)c(-c3ccc(Cl)cc3)[nH]2)cc1,11.4
Cc1ccc(CNC(=O)CCc2nnc(Cc3ccc(-c4ccccc4)cc3)o2)o1,25.8
Cn1c(=O)cc(N2CCOCC2)[nH]c1=O,-0.5
COc1cc(OC)cc(C(=O)N[C@H](C(=O)Nc2nc3c(s2)CCCC3)C(C)C)c1,12.9
CCOC(=O)COc1cccc2c(=O)n(CC(=O)N3CCCCC3)ccc12,-2.1
O=C(Nc1ccc(F)c(Cl)c1)c1nsc(Cl)c1Cl,26.7
Cc1ccc(C2CC(c3cccs3)=NN2C(=O)c2ccco2)o1 (stereo not given),2.3
Cc1ccnc(SCC(N)=O)n1,3.0
O=C(NCc1ccncc1)C(=O)N/N=C/c1ccccc1OCc1ccccc1,12.0
Cc1cccc(CSc2ccc(-c3cccs3)nn2)c1,5.4
N[C@@H](Cc1cc(I)c(O)c(I)c1)C(=O)O,5.0
CCOC(=O)/C(C#N)=N/Nc1ccccc1OC,7.5
COc1ccc(C(=O)NCC(=O)OCc2ccc([N+](=O)[O-])cc2)cc1,16.7
CC(=O)Nc1ccc(S(=O)(=O)N(C)CC(=O)OCC(=O)Nc2ccc3c(c2)OCO3)cc1,8.0
COC(=O)c1ccc(Oc2ccc3nncn3n2)cc1,-5.8
COCCCN(C(=S)Nc1ccc(C)cc1Cl)C(C)c1ccncc1 (stereo not given),11.9
C(=N\N1CCN(C(c2ccccc2)c2ccccc2)CC1)/c1ccc2c(c1)OCO2,22.0
C/C(Cc1ccccc1)=N\NC(=O)CNC(=O)COc1ccccc1,20.4
C=CCN(CC=C)CCCOc1ccccc1C(=O)OC,9.7
CCN(CC)c1ccc(NC(=O)Cn2c(C(C)NC(=O)c3ccccc3)nc3ccccc32)cc1 (stereo not given),24.9
O=S(=O)(c1cccc(F)c1)N1CCC(CO)(Cc2cccc(F)c2)CC1,0.0
O=C(Oc1c(-c2ccccc2Cl)oc2ccccc2c1=O)c1ccc(Cl)cc1,10.0
Cc1cc(=O)n2c(C(=O)Nc3ccc(C(=O)OC(C)C)cc3)c(C(=O)Nc3ccccc3)sc2n1,13.3
CCOC(=O)/C(C#N)=C1\CCCN1CC(N)=S,-12.6
Cn1c(CSc2nc3ccccc3s2)nnc1SCC(=O)NCCCN1CCOCC1,16.7
C#CCNC(=O)C1=C[C@H](C2CCCCC2)[C@@H](CCCO)[C@H](OCC)O1,9.9
Fc1ccc(-c2nnsc2Sc2ccccn2)cc1,10.9
CC(C)(C)NC(=O)NC(=O)CSc1n[nH]c(-c2ccccc2Br)n1,9.4
Cc1ccc2nc(C)c3c(c2c1)COC3,13.5
Cc1cccc(NC(=O)c2ccccc2OCC(=O)N2CCCC2)c1C,26.9
CCCCNS(=O)(=O)c1ccc(NC(=O)C2c3ccccc3Oc3ccccc32)cc1,12.0
COc1ccc(NC(=O)CSc2n[nH]c(C)c2[N+](=O)[O-])cc1,4.1
Cc1cc(C)n2[nH]c(=O)c(N=Nc3ccc(S(N)(=O)=O)cc3)c2n1,33.0
O=c1[nH]c(CN2CCN(S(=O)(=O)c3ccc(Cl)cc3)CC2)nc2cc(Cl)ccc12,8.4
COC(=O)N/N=C1\CCCc2ccccc21,13.3
CCCCn1c(N)c(N(CCC(C)C)C(=O)CSc2nnc(Nc3ccccc3)s2)c(=O)[nH]c1=O,14.9
Cc1cc(C)n(CCNC(=O)c2cc(COc3ccc4ncccc4c3)on2)n1,22.6
Cc1ccc(NCc2n[nH]c(=S)n2-c2ccccc2)c(C)c1,11.4
COc1ccccc1-c1ccc(SCc2cccc(F)c2)nn1,-3.7
COc1ccc2c(Cl)c(C(=O)OCC(=O)c3ccc4c(c3)NC(=O)CO4)sc2c1Cl,19.8
CCn1c(CCNC(=O)c2ccc(C)cc2)n[nH]c1=S,9.9
Cc1n[nH]c(C)c1CCC(=O)N/N=C/c1c(C)[nH]c2ccccc12,21.1
COc1ccc(NC(=O)CCC(=O)N/N=C/c2ccncc2)cc1,6.1
Cc1ccc(C(=O)N/C(=C/C=C\c2ccccc2)C(=O)NCc2ccco2)cc1,23.2
CCCn1c(SCC(=O)Nc2cccc(C)n2)nnc1C(C)C,7.7
CCOC(=O)C1=C(N)OC2=C(C(=O)CC(C)C2)C1c1cccnc1 (stereo not given),13.2
O=C(Cn1ncc(Cl)c(Cl)c1=O)NCC1CCCCC1,11.0
Clc1ccc(COc2cccc(CNCc3ccncc3)c2)cc1,6.6
CC(=O)Nc1ccc(N/C=C(\C=O)c2nc3ccccc3o2)cc1,-1.5
Cn1cnnc1SCC(=O)c1c(N)n(Cc2ccccc2)c(=O)n(C)c1=O,15.7
CC(C)(C)NC(=O)C(=O)NCc1ccccn1,-0.1
Cc1ccc(-c2nc(NCc3ccco3)n(C(=O)c3ccco3)n2)cc1,11.5
CC(C)OC(=O)Nc1ccc2c(c1)N(C(=O)CCN1CCN(CCO)CC1)c1ccccc1CC2,9.4
COC(=O)c1cccc(NC(=O)Nc2ccc(Cl)cc2Cl)c1,6.1

(next part)
SMILES,Calb biofilm kill
C=CCSc1nc(=O)n2ccccc2n1,5.2
Cc1ccc(Nc2nc(N)c([N+](=O)[O-])c(NCc3ccco3)n2)cc1C,4.1
NNC(=O)COc1ccc(C2SCCS2)cc1,19.5
Cc1cc(C)cc(C(=O)Nc2nnc(SCC(=O)N3CCCc4ccccc43)s2)c1,1.9
CSc1ccccc1NC(=O)Cc1ccccc1,1.4
COc1ccc(CCNC(=O)c2nonc2N)cc1,15.4
Cc1ccc(NC(=O)CSc2ccc(-c3ccco3)nn2)cc1,13.6
COCCCn1c(SCC(=O)Nc2sc3c(c2C#N)CCCC3)nnc1-c1ccncc1,20.8
O=C(Cc1ccccc1)N[C@@H](Cc1ccc(O)cc1)C(=O)O,24.2
COc1ccccc1NC(=O)Nc1ccccc1SC,9.5
CC(C)c1ccc(S(=O)(=O)/N=C2/C=CC(=O)c3ccccc32)cc1,13.6
Cc1ccc2c(c1)c1c(n2C)-c2[nH]ncc2CC1,16.8
CCOc1cc(C=O)cc(Br)c1OCC(=O)NCCc1ccccc1,12.3
OCCNCc1cccc(Br)c1,14.5
CCNC(=S)NNC(=O)c1csc(C(C)C)c1,6.8
CCOC(=O)C1CCN(C(=O)c2ccc(NC(=O)C3CCCO3)cc2)CC1 (stereo not given),18.8
CC1(C)CC(=O)/C(=C\c2cccc([N+](=O)[O-])c2)C(C)(C)N1,5.5
C=C(C)c1cccc(C(C)(C)NC(=O)Nc2nncs2)c1,17.4
COc1ccc(C2=NN(C(=O)CSc3nc4ccccc4s3)C(c3ccc(F)cc3)C2)cc1 (stereo not given),5.6
CN(Cc1ccccc1)S(=O)(=O)c1ccc2c(c1)n(C)c(=O)c(=O)n2C,15.6
COc1ccc2nc(-n3c(O)c(C4=c5ccccc5=NC4=O)[nH]c3=S)sc2c1,28.8
COc1ccc(NC(=O)C2(c3ccc(NC(=O)c4ccc(OC)cc4)cc3)CCCC2)cc1,12.9
O=C(CC1NCCc2ccccc21)Nc1ccccc1 (stereo not given),16.5
CCC(=O)NC(=S)Nc1ccc(NC(=O)c2cccc([N+](=O)[O-])c2C)cc1,14.6
O=C(COc1ccccc1Br)NCCc1nc2ccccc2[nH]1,17.7
O=C1CC(NNC(=O)c2cccc(F)c2)C(=O)N1 (stereo not given),5.8
CS(=O)(=O)N1CCCC(C(=O)c2cccc(Cl)c2)C1 (stereo not given),3.9
Cc1ccc(C(=O)Oc2coc(CSc3nnc(NC(=O)C4CC4)s3)cc2=O)cc1,21.3
COc1ccc(C(c2nnnn2CC2CCCO2)N2CCC(C(N)=O)CC2)cc1 (stereo not given),13.6
O=C(C1=C[C@H](c2ccc3c(c2)OCO3)C[C@H](OCCCCO)O1)N1CCN(Cc2ccccc2)CC1,0.2
O=C(C1CCN(C2CCN(CC3CC=CCC3)CC2)CC1)N1CCOCC1 (stereo not given),9.2
CC(CCn1cccn1)NC(=O)c1cc(COc2ccc(F)cc2Cl)on1 (stereo not given),-8.5
COC(=O)C(Cc1ccccc1)NS(=O)(=O)c1ccc(F)cc1Br (stereo not given),16.1
O=C(O)CC1(CC(=O)Nc2ccc(F)c(Cl)c2)CCCCC1,14.9
Cc1ccc(Oc2cnn(-c3ccccc3)c(=O)c2Br)cc1,-31.1
Cc1cccc(NC(=O)c2nc[nH]c2C(=O)N[C@@H](CC(C)C)C(=O)OC(C)(C)C)c1,11.7
COc1ccc(OCCn2c(=O)sc3ccccc32)cc1,15.3
O=C(/C=C/c1c(F)cccc1Cl)Nc1ccncc1,-10.4
CCOC(=O)c1cnn(-c2ccccc2)c1NC(=O)CN1CCCCC1,1.2
CC(=O)/C(=N/Nc1ccccc1Cl)Sc1nnc(C(O)c2ccccc2)n1-c1ccccc1 (stereo not given),15.1
O=C1CC(N2CCN(c3ccc(O)cc3)CC2)C(=O)N1c1ccc2c(c1)OCO2 (stereo not given),6.7
CN(C)/C=C/C(=O)c1ccc(-c2ccc(Cl)cc2Cl)o1,4.9
C/C(=N\Nc1nc(Nc2ccccc2)nc(N2CCOCC2)n1)c1cccs1,24.2
Cc1cc(C)n(CC(=O)Nc2cccc(C(F)(F)F)c2)n1,10.5
O=C(C1=C(O)C(=O)N(CCOCCO)C1c1cccc([N+](=O)[O-])c1)c1cccs1 (stereo not given),8.1
CCN=C1S/C(=C\c2sccc2C)C(=O)N1CC,10.2
Cc1cccc(NC(=O)Nc2cnccn2)c1,18.2
O=C(Cc1ccccc1)c1ccc(Cl)cc1,13.4
CCOc1ccc(N2C(=O)S/C(=C\c3cc(OC)c(OC)c(OC)c3)C2=O)cc1,18.1
COc1ccc(NCc2nc3ccccc3n2CCOc2ccc(C)cc2)cc1,14.6
N#CC(c1ccccc1)c1ccc(=O)[nH]n1 (stereo not given),11.4
O=C(CC1C(=O)NCCN1Cc1cccc(Oc2ccccc2)c1)NCCn1cccn1 (stereo not given),35.1
C[N+]1(CC2COC3(CCCCC3)O2)CCCC1 (stereo not given),5.6
COc1ccc(C(=O)C2CCCN(C(=O)Cc3c(C)noc3C)C2)cc1OC (stereo not given),22.5
CC(=O)Nc1ccc(-c2ccc(NC(C)=O)c(O)c2)cc1O,11.8
CC(C(=O)N1CCOCC1)N1C(=O)c2cccc3cccc(c23)C1=O (stereo not given),12.0

Continuation.
SMILES,Calb biofilm kill
COc1ccc(C(=O)c2ccc(OC)cc2OC)cc1,25.1
COc1ccc(C)cc1N(C(=O)COc1ccccc1)c1nc2ccccc2s1,6.8
COc1ccccc1C(=O)c1cc2ccc(O)cc2oc1=O,6.9
CCN1CCC(NC(=O)Nc2cc(Cl)ccc2OC)CC1,11.8
C/C=C(/C)C(=O)OC1c2c(ccc3ccc(=O)oc23)OC(C)(C)C1OC(C)=O (stereo not given),6.2

From PubChem BioAssay
